# Cruzain inh noDet: qHTS Assay for Promiscuous and Specific Inhibitors of Cruzain (without detergent). Cruzipain (Trypanosoma cruzi), P25779. purified cruzain, Z-FR-AMC fluorescence, no detergent. Potency, µM, inactives show max response, negative = inhibition, hits mostly inhibitors. 2.3% of 200,000 active; active = well fitted curve in the direction sought with a large enough effect; inconclusive = small, poorly fitted or top-dose-only effect, or another doubt; inactive = no such curve, though single readings can be large; an effect the other way counts as inactive or inconclusive;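 note: plate controls were enzyme without inhibitor for no effect and buffer without enzyme for full effect; nearly all actives have a fitted effect of over 40% in size; top concentration of the series not given in the record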
# Target sequence (P25779 123-467 limits assumed): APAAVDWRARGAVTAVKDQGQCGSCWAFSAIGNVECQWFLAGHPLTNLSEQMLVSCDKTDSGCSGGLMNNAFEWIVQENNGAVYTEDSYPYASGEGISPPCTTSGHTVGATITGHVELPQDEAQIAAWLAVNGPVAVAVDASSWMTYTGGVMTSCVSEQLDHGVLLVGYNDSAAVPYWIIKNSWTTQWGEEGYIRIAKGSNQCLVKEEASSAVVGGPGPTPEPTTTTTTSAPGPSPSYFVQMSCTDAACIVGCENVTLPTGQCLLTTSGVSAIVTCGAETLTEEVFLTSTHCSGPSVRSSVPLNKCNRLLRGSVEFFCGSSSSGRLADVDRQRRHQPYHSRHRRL
#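 Purified cruzain at 1.5 nM, pre-incubated 15 min with compound at room temperature in 100 mM sodium acetate pH 5.5, 5 mM DTT, 0.00005% Triton X-100. Reaction started with 2 uM Z-FR-AMC; AMC fluorescence increase over 60 s gives rate.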
# Lassa entry inh: qHTS for Inhibitors of binding or entry into cells for Lassa Virus | Lassa virus pseudotype entry inhibition, cell reporter; control for the full effect not named in the record | Potency, µM (titrated, usually from 37.9 µM), without a hit: at the top dose activity change, negative = inhibition, actives largely listed as inhibitors | 1.2% of 300,000 active | AID 540256, 2011; active means well fitted inhibition curve with a large enough effect; inconclusive means small, poorly fitted or top-dose-only effect, or effect the other way; inactive means flat fitted curve, though single readings scatter; tested in HEK293 cells; note: % is set by controls: 0 for no effect and ±100 for the full control effect; nearly all actives have a fitted effect of over 50% in size; luciferase read-out
# RE007 growth inh: qHTS Assay for Inhibitors of the HIV-1 protein Vpr; S. pombe RE007 Vpr strain, BacTiter-Glo ATP luminescence, 24 h; control for the full effect not named in the record; Potency, µM (highest dose often 92.2 µM), for inactives: at the top dose activity change, negative = less growth; 0.21% of 360,000 active; AID 651644, 2012; active = well fitted falling curve with a large enough effect; inconclusive = small, poorly fitted or top-dose-only effect; inactive = no such curve, though single readings can be large or run the other way;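 note: % is set by controls: 0 for no effect and ±100 for the full control effect; nearly all actives have a fitted effect of over 50% in size; the assay follows cell death caused by Vpr and the record does not say whether a fall means rescue or toxicity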
#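 Fission yeast RE007 carrying one integrated HIV-1 vpr copy, seeded at OD 0.01 in PMG+AL medium with 23 nL pinned compound. Grown 24 h at 30 degrees; viability read by BacTiter-Glo luminescence after 5 min.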
# Marburg entry inh: qHTS for inhibitors of binding or entry into cells for Marburg Virus | Marburg virus pseudotyped entry inhibition, cell reporter; control for the full effect not named in the record; about a third of the inactives were read at about 46 µM | Potency, µM (series often up to 37.8 µM), for the others: top-dose activity change, negative = inhibition, actives largely listed as inhibitors | 1.8% of 300,000 active | AID 540276, 2011; active = well fitted inhibition curve with a large enough effect; inconclusive = small, poorly fitted or top-dose-only effect, or effect the other way; inactive = flat fitted curve, though single readings scatter; tested in HEK293 cells; about a fifth of its hits are not listed in these tables; note: % is set by controls: 0 for no effect and ±100 for the full control effect; luciferase read-out
# SARS PLP yeast: qHTS of Yeast-based Assay for SARS-CoV PLP. S. cerevisiae expressing SARS-CoV PLpro, growth rescue; control for the full effect not named in the record. Potency, µM (highest dose often 32.9 µM), for inactives: top-dose activity, positive = growth rescue. 0.19% of 330,000 active; note: 0% is about no effect; nearly all actives have a fitted effect of over 55% in size; growth read by luminescence after 48 h
# Cruzain inh Det: qHTS Assay for Promiscuous and Specific Inhibitors of Cruzain (with detergent); purified cruzain, Z-FR-AMC fluorescence, 0.01% Triton; 0.43% of 200,000 active; Potency, µM, for the others: max response, negative = inhibition, most hits filed as inhibitors; AID 1478, 2009; active = well fitted curve in the direction sought with a large enough effect; inconclusive = small, poorly fitted or top-dose-only effect, or another doubt; inactive = no such curve, though single readings can be large; an effect the other way counts as inactive or inconclusive;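 note: plate controls were neutral wells for no effect and buffer without enzyme for full effect; nearly all actives have a fitted effect of over 40% in size; top concentration of the series not given in the record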
#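 Purified cruzain (1.5 nM final) was preincubated with compounds for 15 min at room temperature in 100 mM sodium acetate pH 5.5, 5 mM DTT, 0.01% Triton X-100. Reaction started with 2 uM Z-FR-AMC; AMC fluorescence change over 60 s gave activity.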
# NS1 function inh: qHTS Assay for Inhibitors of Influenza NS1 Protein Function. S. cerevisiae slowed by influenza A NS1, growth recovery by OD600. Potency, µM (highest dose often 46.1 µM), without a hit: at the highest dose activity, positive = more growth. 0.4% of 270,000 active. AID 2326, 2010; note: actives are rising curves; nearly all actives have a fitted effect of over 50% in size
#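 Recovery from NS1-induced slow growth read by OD600 in budding yeast switched to galactose assay medium (pH 6.0, -URA) at 1:100 dilution. Compound 23 nl per well; the matching strain lacking NS1 serves as control.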
# StopGo reporter: High Throughput Screening for Foot and Mouth Disease Virus Antivirals. 1.2% of 410,000 active. Potency, µM (doses to about 57.9 µM), for inactives: at the highest dose signal change, negative = less light. human cells with a luciferase reporter of 2A StopGo recoding; control for the full effect not named in the record; active = well fitted falling curve with a large enough effect; inconclusive = small, poorly fitted or top-dose-only effect; inactive = no such curve, though single readings can be large or run the other way; tested in HEK293T cells; note: % is set by controls: 0 for no effect and ±100 for the full control effect; nearly all actives have a fitted effect of over 45% in size; luciferase light after 4 h
# * = called active by the depositor; ? = inconclusive; / = not tested or not shown; & = joins results of further samples; [ ] = dose if it differs, or a comment. Unless noted, calls come from the whole dose curve; as a rule, active means well fitted rising curve with a large enough effect; inconclusive means small, poorly fitted or top-dose-only effect; inactive means no such curve, though single readings can be large or run the other way. Potency is the fitted concentration of half-maximal effect.
Molecule,Cruzain inh noDet,Lassa entry inh,RE007 growth inh,Marburg entry inh,SARS PLP yeast,Cruzain inh Det,NS1 function inh,StopGo reporter
N/C(=N\OC(=O)CCCOc1ccccc1)c1cccc([N+](=O)[O-])c1,/,0.6%[46.1 µM],-1.9%,-5.7%[46.1 µM],-1.0%,/,/,-8.6%
CCN1CCCC1CNS(=O)(=O)c1ccc(F)c(Cl)c1 (stereo not drawn),/,20.9%[46.1 µM],-9.7%,-16.6%[46.1 µM],-2.8%,/,6.6%,-3.3%
Cc1cccc(-c2cc3c(N=O)c4ccccc4c-3n[nH]2)c1,/,?,-4.7%,?,-0.5%,/,/,-47.1%
O=S(=O)(O)c1cccnc1SCc1ccccc1,/,-0.9%[46.1 µM],0.2%,-3.2%[46.1 µM],/,/,/,-7.9%
Cc1cccc(NC(=O)CCNC(=O)c2ccccc2Cl)n1,/,-0.1%[46.1 µM],-2.3%,24.2%[46.1 µM],1.4%,/,2.6%,-9.6%
COc1ccc(Br)cc1CNC(=O)c1nn(-c2ccc(C)cc2)c(=O)c2c1c1ccccc1n2C,-7.7%,-0.4%[46.1 µM],/,-3.9%[46.1 µM],/,-1.8%,/,9.3%
COc1ccc(C2CC(c3ccccc3)Nc3nc(NC(=O)c4cccs4)nn32)cc1 (stereo not drawn),-14.5%,?,-6.8%,?,0.0%,4.9%,13.2%,-16.6%
S=c1[nH]nc(-c2cc(-c3ccccc3)n[nH]2)n1/N=C/c1ccc(Cl)cc1,/,?,32.8%,?,0.2%,/,3.8%,3.6%
Cc1ccc(NC(=O)CCN2C(=O)c3ccccc3Sc3ncccc32)cc1,-0.8%,?,-14.0%,2.6%&2.6%[46.1 µM],1.2%,0.4%,-7.2%,-1.6%&7.1%
CCOc1ccc(S(=O)(=O)c2c[nH]c3ccccc3c2=O)cc1,5.9%,17.3%&7.2%[46.1 µM],-10.1%,-0.8%&8.0%[46.1 µM],5.4%,-2.5%,2.2%,3.9%&3.9%
CCN(CC)S(=O)(=O)c1ccc(C(=O)NC2=C(C(=O)OC)SCC2)cc1,5.3%,?,18.4%,-3.2%,-2.5%,-4.6%,-14.0%,?
O=C(Cn1cnc2c(nnn2-c2ccccc2)c1=O)NCC1CCCO1 (stereo not drawn),-9.3%,/,1.4%,/,-4.2%,2.4%,-105.6%,-1.2%
COC(=O)c1cc(C(=O)NCc2ccc3c(c2)OCO3)cc([N+](=O)[O-])c1,/,-0.3%[46.1 µM],-2.6%,8.4%[46.1 µM],2.7%,/,-14.5%,5.9%
Cc1cc(C)cc(NC(=O)COC(=O)CCc2ccc(S(=O)(=O)N3CCOCC3)cc2)c1,/,24.2%,-23.4%,2.6%[46.1 µM],-0.6%,/,/,-19.6%
CNc1nc(Sc2ccc(C)cc2)cc(C(F)(F)F)n1,7.9%,-10.3%,7.6%,?,-1.4%,-10.4%,2.0%,8.3%
CCCCOc1ccc(C(=O)OCC(=O)N2CCCCCC2)cc1,/,?,4.9%,-27.5%,-1.0%,/,/,-28.4%
CC(C)(C)c1cc(C(=O)O)n(Cc2ccc(Cl)cc2Cl)n1,/,?,13.7%,-3.5%,-1.1%,/,-0.5%,-2.7%
COc1cccc(-c2nc(S(=O)(=O)c3ccccc3)c(NCc3ccccc3)o2)c1,-0.9%,-15.0%[46.1 µM],/,3.7%[46.1 µM],/,-24.2%,/,7.2%
COc1cccc(/C=C/c2n[nH]c(=O)c(C#N)c2C)c1,/,15.3%[46.1 µM],0.7%,?,2.3%,/,-11.5%,-23.7%
Cc1[nH]c(=O)[nH]c(=O)c1N1CCOCC1,/,/,1.6%,/,-1.1%,/,2.9%,-6.6%
CC(C)C(=O)N1CCC(Cc2ccccc2)CC1,/,/,16.0%,/,-3.9%,/,3.9%,-21.2%
COc1ccc(NC(=O)CCNC(=O)C2CCN(S(=O)(=O)c3ccc(OC)cc3)CC2)cc1,/,21.4%[46.1 µM],-8.4%,?,0.7%,/,-11.4%,-7.9%
COC(=O)C1CCN(C(=O)Nc2ccccc2)CC1,/,4.4%,22.2%,?,-1.2%,/,3.5%,3.2%
CCOC(=O)c1sc(=S)n(-c2ccccc2)c1NC(C)=O,/,-11.9%,-4.2%,1.2%[46.1 µM],2.4%,/,0.8%,8.8%
COC(=O)c1ccc(NC(=O)c2ccc3nsnc3c2)cc1,/,-9.8%,-13.1%,17.9%[46.1 µM],-0.6%,/,-8.7%,0.2%
COc1ccc(-c2noc(-c3ccccc3C(=O)Nc3cccc(OC)c3)n2)cc1,4.0%,-20.3%,-1.0%,?,2.1%,-2.1%,6.9%,-15.2%
COc1ccc(C2CC(=O)c3c([nH]c(C(=O)OC(C)C)c3C)C2)cc1OC (stereo not drawn),-1.1%,10.2%,21.3%,?,8.9%,-3.3%,?,?
O=C(Nc1ccccc1N1CCN(C(=O)c2ccc(Cl)cc2)CC1)c1cccc(F)c1,/,?,-1.9%,?,-9.6%,/,-33.8%,?
COc1ccc(S(=O)(=O)N(CC(=O)Nc2cc(C)ccc2OC)Cc2ccccc2)cc1,-6.2%,-34.0%[46.1 µM],/,/,/,-5.4%,/,-10.6%
COCCCN(C(=O)c1ccco1)c1nc(-c2ccc(OC)cc2)cs1,/,?,13.8%,?,-6.2%,/,-33.0%,-22.6%
CCOc1ccccc1NC(=O)Cn1c(=O)oc2cc(Cl)ccc21,/,7.8%,6.5%,?,-2.1%,/,-7.2%,-20.2%
Cc1ccc(/C=N/NC(=O)CSc2nc3ccccc3s2)o1,-2.6%,-4.2%,5.1%,?,14.0%,-3.6%,14.1%,19.1%
O=C(Nc1cccc(F)c1)Nc1cccc(Cl)c1,/,?,-6.9%,?,-21.1%,/,-95.7%,1.4%
CC(NS(=O)(=O)c1ccc2c(c1)OCCO2)c1ccccc1 (stereo not drawn),/,-0.1%[46.1 µM],-5.9%,?,0.9%,/,0.8%,32.3%[activator]
COc1ccccc1NC(=O)Cn1cc(C(=O)c2ccncc2)c(=O)c2cc(C)ccc21,1.0%,21.2%[46.1 µM],/,/,/,-0.8%,/,0.6%
COc1ccc(C(CNC(=O)c2ccc(C)o2)N2CCOCC2)cc1 (stereo not drawn),/,11.3%,-9.0%,-2.9%,-1.8%,/,/,0.8%
CN(C)c1ccc(C(=O)c2ccc(N(C)C)cc2)cc1,-15.3%,?,0.6%,5.0%&5.0%,-14.2%,-9.5%,-5.7%,81.2%[activator]
Clc1ccc(C2[C@H]3CN(Cc4ccc(-c5ccccc5)cc4)[C@H](c4ccccc4)C34CC2(c2ccccc2)C4)cn1 (stereo partly drawn),?,/,-5.8%,/,-2.5%,-2.7%,3.3%,-7.7%
Cc1nc2c(C)cccc2cc1C(=O)N/N=C/c1ccc(N(C)C)cc1,-21.8%,?,-5.7%,?,-4.6%,-7.9%,-12.9%,-12.6%
Cc1cccc(C)c1NS(=O)(=O)c1ccc(-c2ccc(=O)[nH]n2)o1,/,/,-2.2%,/,-0.8%,/,-1.7%,-5.6%
COC(=O)c1ccc(/C=N\N2CCN(c3ccccc3)CC2)cc1,/,/,0.5%,/,-1.2%,/,12.3%,38.2%[activator]
O=c1oc2c(O)cccc2cc1-c1nc2ccccc2[nH]1,/,?,-11.4%,?,-2.2%,/,4.5%,0.5%
COc1ccc(CN2CN(C(C)C)CSC2=S)cc1,2.2%,-20.5%,12.0%,?,-3.3%,-6.0%,?,-5.2%
CN1CC=C2C(C#N)=C(N)C(C#N)(C#N)[C@H](c3cccc(Cl)c3)C2C1 (stereo partly drawn),1.2%,5.5%,-14.2%,0.3%&0.3%[46.1 µM],7.2%,-7.5%,18.5%,-24.9%
Cc1cc(C)c(S(=O)(=O)N2CCCC(C(=O)NCc3ccncc3)C2)c(C)c1 (stereo not drawn),/,-2.1%,-4.5%,-24.8%,-2.2%,/,-8.5%,-27.0%
COc1ccc(C(=O)OCC(=O)Nc2ccc(Cl)cn2)cc1,/,21.6%,21.9%,-2.7%,-1.9%,/,2.3%,1.3%
O=C(N/N=C/C1CC=CCC1)c1cc2ccccc2cc1O (stereo not drawn),?,10.4%,1.5%,-26.5%,5.1%,-7.1%,?,5.9%
CSCCC(C(=O)NC1=NCCS1)N1C(=O)c2ccccc2C1=O (stereo not drawn),-2.5%,6.7%,-15.0%,?,5.4%,2.3%,-1.9%,15.9%
COc1cccc(C(=O)Nc2ccc(C(=O)OCc3cc(=O)n4cc(C)sc4n3)cc2)c1,-4.5%,11.5%[46.1 µM],/,/,/,0.1%,/,39.9%[activator]
COc1ccc(S(=O)(=O)N2CCN(C(=O)c3cc(-c4ccc(C)cc4)n[nH]3)CC2)cc1,/,/,10.5%,/,-0.3%,/,-21.6%,-22.3%

# Following part.
Molecule,Cruzain inh noDet,Lassa entry inh,RE007 growth inh,Marburg entry inh,SARS PLP yeast,Cruzain inh Det,NS1 function inh,StopGo reporter
CC1CCN(CCCNC(=O)c2cc3c(s2)-c2ccccc2OC3)CC1,/,/,-17.1%,/,-3.0%,/,-5.4%,-9.2%
Cc1ccc(C)[n+](CC(=O)N2CCCCC2)c1,/,?,-6.3%,-14.8%[46.1 µM],0.8%,/,-3.1%,-9.4%
Cc1cc(NC(=O)CCC(=O)N(CC(=O)NC2CCCC2)c2ccc(F)c(Cl)c2)no1,/,-1.2%[46.1 µM],-0.1%,-1.3%[46.1 µM],0.7%,/,-9.0%,21.2%
CCN(CC)CC(=O)c1ccc(-c2ccccc2)cc1,-10.6%,1.3%,-13.4%,8.1%,-30.3%,-0.3%,-26.1%,-27.3%
